# Assay outcomes (PubChem)
# BmaI1 enzyme – BmaI1 acyl-homoserine lactone synthase inhibition – biochemical, fluorescence intensity, with counterscreen (AID 720554) | BmaI1 enzyme assay, fluorescence intensity; stronger effect = higher value; test concentration not given here; a few actives read low; strong numbers were not always called active | inhibition, % | hit rate 0.4% among 12,000;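 active means both replicates within 2 robust z-scores of the inhibited control and a quiet counterscreen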;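 further: 0% = uninhibited enzyme and 100% = inhibited control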
# BmaI1 enzyme counterscreen – recorded beside BmaI1 enzyme, whose call it bears; inhibition, %; measured here: counterscreen; design of the counterscreen not given here;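 first of two replicates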
# Active calls of the source: *; & = joins results of further samples. This is a subset, so the mix of outcomes need not match the whole.
SMILES,BmaI1 enzyme,BmaI1 enzyme counterscreen
CC(=O)C1(O)CCC2C3CC(C)C4=CC(=O)C=CC4(C)C3(F)C(O)CC21C (configuration not stated),5,16
O=c1c2ccccc2c(/C=N/c2ccnn2Cc2ccco2)c(O)n1-c1cccc(C(F)(F)F)c1,0,2
COc1ccc(S(=O)(=O)N2CCN(C(=O)Cc3ccsc3)CC2)cc1,4,4
N#Cc1cccc(NC(=O)C2CCCC2)c1,0,2
O=c1cc(Cn2nnc(-c3ccccc3)n2)[nH]c(=O)[nH]1,14,3
Cc1nc(C)c(C(=O)N/N=C/c2cc(Br)ccc2O)s1,-10,-36
C=CCn1c(SCC(=O)Nc2ccc3c(c2)OCO3)nnc1-c1ccccc1F,8,4
COC(=O)c1cc(-c2cccnc2)nn1-c1nc(C)cc(C)n1,28,2
Cn1c(Cc2nnc(Nc3ccc(S(=O)(=O)N4CCOCC4)cc3)s2)nc2ccccc21,18,10
N#CC(C(=O)c1ccc(F)cc1)c1ccccn1 (configuration not stated),4,7
CCOC(=O)c1sc(NC(=NC)c2ccco2)cc1C,18,5
COc1cc(CCC(=O)NCc2ccc(S(N)(=O)=O)cc2)cc(OC)c1OC,3,3
O=C1c2ccccc2C(=O)c2c1oc1c3c(ccc21)OCN(CCC1=CCCCC1)C3,28,20
Nn1c(SCCCSc2nnc(C(F)(F)F)n2N)nnc1C(F)(F)F,12,-3
CC(C)C(=O)Nc1ccc([N+](=O)[O-])c(C(F)(F)F)c1,2,18
COc1ccccc1NC(=O)NNc1c(C)cc(C)cc1C,15,14
C[C@H](N=C1NS(=O)(=O)c2ccccc21)C(=O)OCC(=O)N1CCC(c2ccccc2)=N1,2,-3
N[C@@H]1CONC1=O,3&-6,6&8
COc1ccc2cc(CCC(C)=O)ccc2c1,2,5
CCCOc1ccc(C(=O)NCC(C)(C)N2CCOCC2)cc1,9,4
O=C(/C=C/c1ccco1)OCc1ccc(Br)cc1,-4,-14
O=C(CO/N=C/c1cccc(Oc2ccccc2)c1)N1CCN(C(=O)c2ccco2)CC1,15,18
Cc1ccc(S(=O)(=O)N2CCN(C(=O)CSc3nccn3C)CC2)cc1,12,8
Cc1cnc(C(=O)N(CC(=O)Nc2cccc(C)c2C)CC2CCCO2)cn1 (configuration not stated),6,8
N#Cc1ccccc1OCC(=O)OCC(=O)NC1CCCCCC1,13,-2
CC(=O)OCC(=O)[C@@]1(O)CC[C@H]2[C@@H]3C[C@H](C)C4=CC(=O)C=C[C@]4(C)[C@H]3[C@@H](O)C[C@@]21C,9,17
c1ccc2c(c1)CCCC2NC1=NCCC1 (configuration not stated),10,8
Nn1cnc2ccccc21,12,50
Cc1cc(C)cc(C(=O)/C=C2\NC(=O)CS2)c1,12,20
COc1ccc(-c2n[nH]c(=S)n2C)cc1,89,66

# 6 entries out of the list, ordered by formula weight, largest number first.
SMILES,BmaI1 enzyme,BmaI1 enzyme counterscreen
C[C@H](N=C1NS(=O)(=O)c2ccccc21)C(=O)OCC(=O)N1CCC(c2ccccc2)=N1,2,-3
Cc1cnc(C(=O)N(CC(=O)Nc2cccc(C)c2C)CC2CCCO2)cn1 (configuration not stated),6,8
N#Cc1ccccc1OCC(=O)OCC(=O)NC1CCCCCC1,13,-2
COc1ccccc1NC(=O)NNc1c(C)cc(C)cc1C,15,14
Cc1cc(C)cc(C(=O)/C=C2\NC(=O)CS2)c1,12,20
COc1ccc(-c2n[nH]c(=S)n2C)cc1,89,66

# Next results
SMILES,BmaI1 enzyme,BmaI1 enzyme counterscreen
CC12CCC(=O)N1C(C(=O)OCC(=O)c1ccc(F)c(F)c1)CS2 (configuration not stated),4,-4
COCC(C)N1C(=O)Cc2c1nc(N)c1c(N)nc(N3CCN(c4ccccc4F)CC3)c(C#N)c21 (configuration not stated),20,6
O=C1Nc2ccccc2N2C1CC(=O)N(c1ccccc1)C2c1ccc(F)cc1 (configuration not stated),10,-4
O=C(Cn1nnc(-c2ccccc2Cl)n1)N1CCN(S(=O)(=O)c2ccc(Cl)cc2)CC1,4,2
Cc1ccc(/C=C/C(=O)NC2CCCc3ccccc32)o1 (configuration not stated),50,-4
Cc1sc2ncnc(N)c2c1C,90*,9.5*
CC1(C)CC2CC(C)(CN2C2=CC3=CC(=C(C#N)C#N)CCC3CC2)C1 (configuration not stated),17,8
N#CC(C(=O)CCN1C(=O)c2ccccc2C1=O)c1nc2ccccc2[nH]1 (configuration not stated),4,0
Cc1ccc(C)c(OCCC(=O)NCc2ccc3c(c2)OCO3)c1,4,12
CCn1c(=O)c(=O)[nH]c2cc(C(=O)NCC3CCCCC3)ccc21,8,-6
CN(C)[C@@H]1C(=O)C(C(N)=O)=C(O)[C@@]2(O)C(=O)C3=C(O)c4c(O)cccc4[C@@](C)(O)[C@H]3[C@H](O)[C@@H]12,-79,-94
O=C(c1ccc2ccccc2n1)N1CCCCCC1,-4,-4
CC(=O)Nc1ccc(SCC(=O)C(C)(C)C)cc1,2,-9
CCOC(=O)C1=C(O)C(=O)N(CCCn2ccnc2)C1c1ccc(OC)cc1 (configuration not stated),4,-2
Cc1cc(C)n2nc(SCC(=O)N3CCNC3=O)nc2n1,16,14
COCCN(Cc1ccccc1)C(=O)c1cccc(S(=O)(=O)N2CC(C)OC(C)C2)c1 (configuration not stated),10,6
CCN1C(=S)SC(=O)C1=C1C=C(C)N(CCOC)C(C)=C1,28,5
Cc1cc(Cl)ccc1OCc1nnc(SCC(=O)O)n1C1CCCCC1,8,-6
CC(C)c1ccc(C(=O)COC(=O)C(O)c2ccccc2)cc1 (configuration not stated),16,17
Cn1cnn(CN2CCCCC2)c1=S,42,46
CC1Cc2ccccc2N1C(=O)COC(=O)c1ccccc1N=NN(C)C (configuration not stated),15,7
O=C(NCc1ccccc1)c1ccccc1OCc1nnc(-c2ccc(Cl)cc2)o1,3,4
CC(C)(C)NC[C@H](O)COc1nsnc1N1CCOCC1,-4,-2
Cc1cc(C(=O)COC(=O)Cc2coc3ccc4ccccc4c23)c(C)n1C1CC1,17,6
Cc1nn(C)c(C)c1CNC(C)c1ccc(-n2ccnc2)cc1 (configuration not stated),12,-2
COc1cccc(C2c3c(C)nn(C)c3NC(=O)C2NC(=O)c2ccccc2)c1 (configuration not stated),9,2
O=C(c1cccs1)C1CN(Cc2ccccc2)CCC1(O)c1cccs1 (configuration not stated),7,10
O=C(NC1CCCCC1)OCC(F)(F)F,14,13
CC(C)Cn1nc(C(=O)N2CCN(Cc3nc4ccccc4s3)CC2)c2ccccc2c1=O,20,19
CCCCn1c(SCC(=O)N2CCC(C)CC2)nc2cc(S(N)(=O)=O)ccc21,14,18
COc1ccc(C(=O)OCc2cn3cc(Cl)ccc3n2)c(OC)c1OC,15,2
Cc1ccc(Nc2nc(CSc3nnc(-c4ccccc4)o3)cs2)cc1,31,28
CCS(=O)(=O)c1ccc(O)c(N=Cc2ccncc2)c1,78,28
O=C(COC(=O)c1ccc(NS(=O)(=O)c2cccs2)cc1)Nc1ncc(Br)s1,12,2
CCC(C)(C)N=C(NC#N)Nc1cccnc1,58,13
O=C1COc2ccc(C(=O)COC(=O)c3ccc4c(c3)C(=O)N(Cc3ccco3)C4=O)cc2N1,8,-2
O=C(c1cncc(Br)c1)N1CCSc2ccccc21,10,8
COc1ccccc1S(=O)(=O)N(C)S(=O)(=O)c1cc(Cl)ccc1Cl,12,6
O=c1cc(CSc2nnc(COc3ccccc3Cl)n2C2CC2)nc2sccn12,-3,-6
Cn1/c(=N/NC(=O)c2ccc(S(=O)(=O)N3CCCCC3)cc2)sc2ccccc21,44,11
COc1cc([C@@H]2c3cc4c(cc3[C@H](O)[C@H]3COC(=O)[C@H]23)OCO4)cc(OC)c1OC,-9,4
O=C1CCC(C(=O)OCc2cc(=O)n3cc(Br)ccc3n2)=NN1,19,16
O=C(Nc1nc2cc3c(cc2s1)OCCO3)c1ccncc1,6,5
CCOC(=O)c1sc(S(N)(=O)=O)c(C(=O)OCC)c1C,-4,-6
CC(C)NC(=O)/C(C#N)=C/c1nn(Cc2ccccc2)cc1-c1cccnc1,23,12
CCCCn1c(SCC(=O)NC)nc2ccccc2c1=O,20,9
CCNC(=O)c1ccc(-n2c(C)ccc2C)cc1,9,5
O=c1c(=NNc2ccc(S(=O)(=O)N3CCOCC3)cc2)c(=O)c2ccccc12,14,4
CC(C)n1c(C(O)c2ccc(N(C)C)cc2)nc2ccccc21 (configuration not stated),-12,-17
CCCCn1c(=O)[nH]c(=O)c2c1nc(-c1ccc(-c3ccc(Cl)cc3)o1)n2C,0,0
CSc1nc2ccccc2n1CN1CCN(S(=O)(=O)c2ccccc2C#N)CC1,14,5
CS(=O)(=O)Nc1cccc(C(=O)OCC(=O)c2cccs2)c1,2,6
CN(C(=O)COC(=O)c1nccnc1N)c1ccccc1,4,5
COC(=O)c1sc(N)c(C(=O)OC)c1COC(=O)CCN=C1NS(=O)(=O)c2ccccc21,5,-6
COc1ccc(CCN(C)C(=O)Cn2nnc(-c3ccccc3Br)n2)cc1OC,6,6
COc1ccc(CC(=O)Nc2sccc2C(N)=O)cc1,18,14
CC(C)(C)NCC(O)c1cc(O)cc(O)c1 (configuration not stated),-20,-6
CCOC(=O)c1oc2ccc(CC/C(C)=N/NC(=O)c3ccoc3C)cc2c1C,20,18
O=C(Nc1ccc2c(c1)OCCCO2)C1CCCN(C(=O)c2ccc(Cl)cc2)C1 (configuration not stated),22,6
CC1CCN(S(=O)(=O)c2ccc(C(=O)NCCSCc3ccco3)cc2)CC1,22,12

# Next part:
SMILES,BmaI1 enzyme,BmaI1 enzyme counterscreen
CCC(C)c1ccc(NC(=O)CN(CC)Cc2nc3ccccc3c(=O)[nH]2)cc1 (configuration not stated),-16,-4
Cc1ccc(CN(C)C(=O)C2CC(=O)N(c3ccc4c(c3)OCCO4)C2)o1 (configuration not stated),26,14
O=C(c1ccco1)N1CCCC(C(F)(F)F)C1 (configuration not stated),0,-4
Cc1cccc(N2CCN(C(=O)CSCc3c(C)noc3C)CC2)c1C,20,12
CC(OC(=O)c1cccn1C)C(=O)Nc1ccccc1C#N (configuration not stated),6,7
CCN=C1NC(=O)C(CC(=O)Nc2ccc(Oc3ccccc3)cc2)S1 (configuration not stated),20,8
O=C(Cn1cnc2c(oc3ccccc32)c1=O)Oc1ccccc1Cl,22,6
O=C(COC(=O)C1COc2ccccc2O1)c1ccccc1 (configuration not stated),29,7
Cc1ccc(CNC(=O)c2ccc(S(=O)(=O)N3CCCC3)cc2)cc1,16,-4
COCCn1c(SCc2ccc(C(=O)OC)o2)nc2ccccc2c1=O,16,10
N#CCc1ccno1,5,6
Cc1cc(S(=O)(=O)Nc2nc(CN3CCOCC3)nc3sc4c(c23)CCC4)ccc1F,4,5
CCOC(=O)/C=C1\SCC(=O)N1CCOC(=O)c1cc2c(C)nn(-c3ccccc3)c2s1,2,-6
COC(=O)c1cc(CSc2nnc(-c3cccs3)n2N)oc1C,9,6
CCOC(=O)c1noc(NC(=O)Cc2ccccc2OC)c1-c1ccccc1,14,10
CSc1ncccc1C(=O)OCCCCN1C(=O)c2ccccc2C1=O,0,2
O=C(CSc1nnc(-c2ccco2)o1)OCc1cc(F)cc2c1OC(c1ccccc1)OC2 (configuration not stated),-3,-2
Cc1ccc(-n2c(SCCc3c(C)noc3C)nnc2-c2ccc(Cl)cc2)cc1,2,3
O=C(OCC(=O)c1c[nH]c2ccccc12)c1cccc(S(=O)(=O)N2CCOCC2)c1,11,10
CCCN(CCC)Cn1nc(-c2ccncc2)n(CCCOCC)c1=S,58,44
CC(=O)Nc1ccc(S(=O)(=O)NCC(=O)OC2CCOC2=O)cc1 (configuration not stated),-14,-12
C(=N\c1nccs1)/N1CCOCC1,-14,-12
COc1cccc(NC(=O)CSc2nnc(C)o2)c1,0,-5
C/C(=N\NC(=O)c1ccc2c(c1)OCO2)c1cc(F)ccc1O,34,18
CCn1c(-c2ccc(C)cc2)cnc1SCC(=O)NCC1CCCO1 (configuration not stated),16,11
CC(C)c1cc(NC(=O)COC(=O)c2ccccc2CSc2ncn[nH]2)on1,20,21
Cc1cc(C)n2nc(C(=O)N3CCCSC3=Nc3ccccc3)nc2n1,12,6
CN(C(=O)NC(=O)Nc1ccc(C=C(C#N)C#N)cc1)S(C)(=O)=O,9,7
Cc1cc(SCC(=O)c2cc(C)n(C)c2C)n2c(nc3ccccc32)c1C#N,1,3
COC(=O)c1cc(COC(=O)COc2ccc(C)c(C)c2)oc1C,6,0

# Full records from above.
# CC(C)c1cc(NC(=O)COC(=O)c2ccccc2CSc2ncn[nH]2)on1 is entered as BmaI1 enzyme: 20; BmaI1 enzyme counterscreen: 21
# COc1cccc(NC(=O)CSc2nnc(C)o2)c1 is entered as BmaI1 enzyme: 0; BmaI1 enzyme counterscreen: -5

# (next part)
SMILES,BmaI1 enzyme,BmaI1 enzyme counterscreen
COc1ccc(NC(C)=O)cc1NC(C)C(=O)NCC1CCCCC1 (configuration not stated),18,4
O=S(=O)(c1ccc(NCc2ccc3c(c2)OCO3)nc1)N1CCCC1,-4,-4
O=C(Nc1ccc(S(=O)C(F)(F)F)cc1)c1ccccn1 (configuration not stated),7,0
CC(C)(C)NC(=O)NC(=O)CN1CCC(Cc2ccccc2)CC1,3,3
CN(CC(=O)Nc1ccc(N2CCOCC2)cc1)Cc1cc(=O)n2ccsc2n1,6,-3
CCC(C)NS(=O)(=O)c1ccc(C)cc1C (configuration not stated),13,16
CN(CC(=O)Nc1ccccc1Br)c1ncnc2sccc12,2,8

# Reformatted: 4 of the compounds above.
SMILES	BmaI1 enzyme	BmaI1 enzyme counterscreen
CC(C)(C)NC(=O)NC(=O)CN1CCC(Cc2ccccc2)CC1	3	3
CN(CC(=O)Nc1ccc(N2CCOCC2)cc1)Cc1cc(=O)n2ccsc2n1	6	-3
CCC(C)NS(=O)(=O)c1ccc(C)cc1C (configuration not stated)	13	16
CN(CC(=O)Nc1ccccc1Br)c1ncnc2sccc12	2	8
